BJeLR viab HTS = BJeLR cell viability loss, primary screen, luminescence, CellTiterGlo ATP; viability loss activity score, % (no concentration beside the values); BJeLR fibroblasts viability, 48 h; HRASV12, hTERT and SV40 LT/ST transformed; AID 2275, 2010; hit rate 0.64% among 30,000; in the data active = viability loss activity score above about 50%; about a fifth of its hits are not listed in these tables;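 also: higher score means fewer live cells and less ATP luminescence; stock transfer was 50 or 100 nL into about 30 µL; 0% = vehicle wells and 100% = a reference killing control; one replicate is shown; the record names a cut of 85%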
A1 inh = inducers of caspase activity in MEF A1-2A-BIM cells, primary screen, A1 inhibitor project, cell-based, CaspaseGlo luminescence | caspase-Glo luminescence, 3 h; percent of clofoctol signal, DMSO as zero | caspase activation, % (concentration not given with the values) | hit rate 0.51% among 21,000 | AID 2241, 2010;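 active = most replicate scores above 10, or exactly half above 10 with mean activity above 10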;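 also: effector caspase 3 and 7 activity cleaving a DEVD luciferin substrate; 50 nL library stock added to about 30 µL; numbers are from one replicate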
* marks the source's active call; other numbers are inactive results; x = not tested or not shown.

SMILES	BJeLR viab HTS	A1 inh
CC(C)NC(=O)C1(O)c2ccccc2NC(=O)N1c1ccc(Cl)c(Cl)c1 (stereo not drawn)	-7.9	x
C[C@@H]1CN([C@@H](C)CO)C(=O)c2cccc(NC(=O)Nc3ccc(C(F)(F)F)cc3)c2O[C@@H]1CN(C)S(=O)(=O)c1cccs1	-6.9	x
C[C@@H]1CN([C@@H](C)CO)C(=O)c2cccc(NC(=O)c3cnccn3)c2O[C@H]1CN(C)C(=O)NC1CCCCC1	0.7	x
CC1(C)Cc2cccc(C(=O)N3CCC(c4c[nH]c5ccccc45)CC3)c2O1	-1.6	0.6
C[C@H]1CN([C@@H](C)CO)C(=O)c2cc(NS(=O)(=O)c3ccccc3)ccc2O[C@H]1CN(C)S(C)(=O)=O	-2.0	0.3
CCOc1ccc(N/C=C2/CCCC(C)C2=O)cc1 (stereo not drawn)	-5.5	x
CCc1cccc2c(C(C(=O)c3ccccc3)c3c[nH]c4c(CC)cccc34)c[nH]c12	-0.9	0.9
C[C@H]1CN([C@@H](C)CO)C(=O)c2cc(NC(=O)Nc3ccc(C(F)(F)F)cc3)ccc2O[C@@H]1CN(C)Cc1ccc(C(=O)O)cc1	3.0	-0.3
CC(C)NC(=O)N(C)C[C@H]1Oc2c(NC(=O)C3CC3)cccc2C(=O)N([C@H](C)CO)C[C@H]1C	2.1	x
COc1ccc2c(c1)CCC(=O)C2	-11.8	-1.3
C[C@@H]1CN([C@H](C)CO)C(=O)c2cc(NC(=O)CCCN(C)C)ccc2O[C@H]1CN(C)Cc1ccc(C(=O)O)cc1	-2.1	-0.4
COc1ccc(NC(=O)N(C)C[C@@H]2Oc3ccc(NS(=O)(=O)c4cccs4)cc3C(=O)N([C@@H](C)CO)C[C@H]2C)cc1	-3.1	0.6
C[C@H](CO)N1C[C@H](C)[C@H](CN(C)C(=O)Nc2ccc(C(F)(F)F)cc2)Oc2c(NS(=O)(=O)c3ccc(Cl)cc3)cccc2C1=O	-8.5	x
C[C@H](CO)N1C[C@H](C)[C@H](CN(C)S(=O)(=O)c2ccc(Cl)cc2)Oc2ccc(NC(=O)Nc3ccc(F)cc3)cc2C1=O	-4.6	0.1
C[C@@H]1CN([C@H](C)CO)C(=O)c2cccc(NC(=O)Nc3ccc(C(F)(F)F)cc3)c2O[C@@H]1CN(C)Cc1ccc(Oc2ccccc2)cc1	6.7	x
COC(=O)C1=C(N)OC2=C(C(=O)CC(C)(C)C2)C1c1ccc(C(=O)OC)cc1 (stereo not drawn)	-3.8	-0.1
Cc1ccc(S(=O)(=O)Nc2ccc3c(c2)C(=O)N([C@H](C)CO)C[C@@H](C)[C@@H](CN(C)S(=O)(=O)c2ccc(F)cc2)O3)cc1	3.6	-0.4
CC(C)(C)c1ccc(S(=O)(=O)N2CCC(O)(c3ccc(Cl)cc3)CC2)cc1	-2.7	x
CSc1nn(-c2ccccc2)cc1C(=O)Nc1ccc(Cl)cc1	4.1	-0.6
COc1c(O[C@@H]2O[C@H](C(=O)O)[C@@H](O)[C@H](O)[C@H]2O)cc2oc(-c3ccc(O)cc3)cc(=O)c2c1O	0.5	-0.1

Gathered by group: the compounds so far containing fluorine
SMILES	BJeLR viab HTS	A1 inh
C[C@@H]1CN([C@@H](C)CO)C(=O)c2cccc(NC(=O)Nc3ccc(C(F)(F)F)cc3)c2O[C@@H]1CN(C)S(=O)(=O)c1cccs1	-6.9	x
C[C@H]1CN([C@@H](C)CO)C(=O)c2cc(NC(=O)Nc3ccc(C(F)(F)F)cc3)ccc2O[C@@H]1CN(C)Cc1ccc(C(=O)O)cc1	3.0	-0.3
C[C@H](CO)N1C[C@H](C)[C@H](CN(C)C(=O)Nc2ccc(C(F)(F)F)cc2)Oc2c(NS(=O)(=O)c3ccc(Cl)cc3)cccc2C1=O	-8.5	x
C[C@H](CO)N1C[C@H](C)[C@H](CN(C)S(=O)(=O)c2ccc(Cl)cc2)Oc2ccc(NC(=O)Nc3ccc(F)cc3)cc2C1=O	-4.6	0.1
C[C@@H]1CN([C@H](C)CO)C(=O)c2cccc(NC(=O)Nc3ccc(C(F)(F)F)cc3)c2O[C@@H]1CN(C)Cc1ccc(Oc2ccccc2)cc1	6.7	x
Cc1ccc(S(=O)(=O)Nc2ccc3c(c2)C(=O)N([C@H](C)CO)C[C@@H](C)[C@@H](CN(C)S(=O)(=O)c2ccc(F)cc2)O3)cc1	3.6	-0.4

Next section:
SMILES	BJeLR viab HTS	A1 inh
O=C(/C=C1/Sc2ccccc2N(Cc2ccc(F)cc2)C1=O)NCc1ccccc1	0.7	x
CCOc1ccccc1NC(=O)CSc1nc2c(oc3ccccc32)c(=O)n1CCOC	-4.3	0.5
COc1ccc(NC(=O)Nc2ccc3c(c2)C(=O)N([C@@H](C)CO)C[C@H](C)[C@@H](CN(C)C(=O)Nc2cccc4ccccc24)O3)cc1	1.6	-0.7
Cc1ccc(-c2cn3cccnc3n2)cc1NC(=O)Nc1ccccc1	0.0	x
N#CCC(=O)N(Cc1ccccc1)C(=O)Nc1cccc(F)c1	-2.6	0.5
C=CCn1c(SCC(=O)Nc2ccc(S(N)(=O)=O)cc2)nnc1-c1ccco1	0.9	0.4
Cc1ccc(C(=O)NCC2OCCc3ccccc32)cc1 (stereo not drawn)	1.8	-0.5
COc1ccc(S(=O)(=O)Nc2cccc3c2O[C@@H](CN(C)C(=O)NC(C)C)[C@@H](C)CN([C@@H](C)CO)C3=O)cc1	4.4	x
O=C1CSC(=NC2CC2)N1Cc1cccs1	-0.3	3.0
CC(C)(C)c1csc(-c2sccc2CS(=O)(=O)c2ccc(Cl)cc2)n1	-4.3	0.2
Cc1ccc(S(=O)(=O)N(C)C[C@H]2Oc3ccc(NC(=O)Cn4cnnn4)cc3C(=O)N([C@H](C)CO)C[C@@H]2C)cc1	-0.1	0.1
COc1ccc(NC(=O)N(C)C[C@H]2Oc3ccc(NS(=O)(=O)c4ccc(F)cc4)cc3C(=O)N([C@H](C)CO)C[C@@H]2C)cc1	2.0	0.6
CCC(CC)NC(=O)c1ccc2c(c1)OCO2	-1.2	-0.1
C[C@@H]1CN([C@H](C)CO)C(=O)c2cc(NC(=O)Nc3ccc(C(F)(F)F)cc3)ccc2O[C@@H]1CN(C)S(=O)(=O)c1ccc(F)cc1	1.5	1.7
COc1ccc(NC(=O)N(C)C[C@H]2Oc3ccc(NC(=O)CCN4CCOCC4)cc3C(=O)N([C@H](C)CO)C[C@H]2C)cc1	-0.1	0.9
Cc1ccc(C)c(CN(C2=NC3CS(=O)(=O)CC3S2)c2cccc(Cl)c2)c1 (stereo not drawn)	-1.7	-0.5
COc1ccc(S(=O)(=O)Nc2ccc3c(c2)C(=O)N([C@H](C)CO)C[C@H](C)[C@@H](CN(C)S(=O)(=O)c2cn(C)cn2)O3)cc1	0.5	-0.6
O=S(=O)(CS(=O)(=O)c1ccc(Cl)cc1)c1ccc(Cl)cc1	-1.2	0.0
C[C@H](CO)N1C[C@H](C)[C@@H](CN(C)Cc2ccc3c(c2)OCO3)Oc2c(NC(=O)C3CC3)cccc2C1=O	5.3	x
Cc1noc(C)c1NC(=O)Nc1ccc2c(c1)C(=O)N([C@H](C)CO)C[C@@H](C)[C@H](CN(C)Cc1ccc(C(=O)O)cc1)O2	0.4	0.2
CCOC(=O)c1c(C)noc1-c1csc(Nc2c(C)cc(C)cc2C)n1	-4.0	-0.5
C[C@@H]1CN([C@@H](C)CO)C(=O)c2cccc(NC(=O)c3cnccn3)c2O[C@H]1CN(C)C	6.4	x
C[C@@H]1CN([C@H](C)CO)C(=O)c2cccc(NC(=O)Nc3ccc4c(c3)OCO4)c2O[C@H]1CN(C)Cc1ccc2c(c1)OCO2	-1.6	x
C[C@H]1CN([C@@H](C)CO)C(=O)c2cc(NC(=O)Nc3ccc(C(F)(F)F)cc3)ccc2O[C@@H]1CN(C)CC1CCCCC1	3.2	0.9
Cc1nn(-c2ccccc2)nc1CNC(=O)CC(C)(C)C	-0.4	-0.2
Cc1noc(C)c1S(=O)(=O)Nc1cccc2c1O[C@H](CN(C)Cc1ccc3c(c1)OCO3)[C@H](C)CN([C@H](C)CO)C2=O	25.9	x
C[C@H](CO)N1C[C@H](C)[C@@H](CN(C)C(=O)NC2CCCCC2)Oc2ccc(NC(=O)c3ccncc3)cc2C1=O	-3.4	0.9
COc1ccc2oc(-c3ccccc3)cc(=O)c2c1	-7.3	-5.1
C[C@@H]1CN([C@H](C)CO)C(=O)c2cc(NC(=O)CCCN(C)C)ccc2O[C@H]1CN(C)S(=O)(=O)c1ccc(F)cc1	-5.3	0.0
CCSc1ncnc2c1sc1nc3c(cc12)COC(C)(C)C3	1.8	-0.6
COc1ccc(CN(C)C[C@H]2Oc3c(NC(=O)NC4CCCCC4)cccc3C(=O)N([C@H](C)CO)C[C@H]2C)cc1	0.9	x
C[C@@H]1CN([C@@H](C)CO)C(=O)c2cccc(NS(=O)(=O)c3cn(C)cn3)c2O[C@@H]1CN(C)S(=O)(=O)c1ccc(F)cc1	-4.7	x
C[C@@H]1CN([C@@H](C)CO)C(=O)c2cc(NC(=O)CCN3CCOCC3)ccc2O[C@@H]1CN(C)C(=O)Nc1ccc2c(c1)OCO2	0.6	-0.6
CC1CN(c2nc3ccccc3nc2SCC(=O)NCc2ccccc2Cl)CC(C)O1 (stereo not drawn)	-0.8	0.1
CCOC(=O)C1CCCN(C(=O)C2c3ccccc3Oc3ccccc32)C1 (stereo not drawn)	-4.8	-0.2
C[C@@H]1CN([C@H](C)CO)C(=O)c2cc(NS(=O)(=O)c3ccc(Cl)cc3)ccc2O[C@H]1CN(C)CC1CCCCC1	-2.0	-1.0
CC(C)NC(=O)N(C)C[C@H]1Oc2ccc(NS(=O)(=O)c3cn(C)cn3)cc2C(=O)N([C@@H](C)CO)C[C@H]1C	1.9	0.5
Cc1noc(C)c1NC(=O)N(C)C[C@@H]1Oc2ccc(NS(=O)(=O)c3c(C)noc3C)cc2C(=O)N([C@@H](C)CO)C[C@@H]1C	-13.4	0.4
C[C@@H]1CN([C@@H](C)CO)C(=O)c2cccc(NC(=O)Nc3ccc4c(c3)OCO4)c2O[C@@H]1CN(C)S(C)(=O)=O	-1.2	x
O=C(C1CC(=O)N(c2ccc(F)c(Cl)c2)C1)N1CCCCC1 (stereo not drawn)	-1.6	0.5
Cc1ccc(Oc2ncc(C(F)(F)F)cc2Cl)c2c1CCC2	1.4	-0.6
Brc1ccc(-c2cnc3ccccc3n2)s1	-0.3	-5.7
COC(=O)/C=C1\SC(=NC(=O)c2ccc(F)cc2)NC1=O	-2.1	-1.6
CCOC(=O)c1c(N)n[nH]c1C	-2.6	0.8
Cc1noc(C)c1NC(=O)N(C)C[C@H]1Oc2c(NC(=O)C3CC3)cccc2C(=O)N([C@H](C)CO)C[C@@H]1C	-0.2	x
O=C(NC1CC1)c1ccc(Cl)cc1Cl	-0.2	-1.2
C[C@H]1CN([C@@H](C)CO)C(=O)c2cc(NC(=O)CCN3CCOCC3)ccc2O[C@@H]1CN(C)Cc1ccc(C(F)(F)F)cc1	-4.7	-0.1
CCc1ccc(NC(=O)N2CC(C)Sc3ccccc32)cc1 (stereo not drawn)	4.2	-0.2
N#Cc1cc[n+](CC(=O)c2ccc(NC(=O)c3ccccc3)cc2)cc1	3.0	-4.9
O=C1C(Cc2ccc(-c3nn[nH]n3)cc2)=C(c2ccccc2)S(=O)(=O)c2ccccc21	0.7	0.7
C[C@@H]1CN([C@H](C)CO)C(=O)c2cc(NC(=O)Nc3ccccc3)ccc2O[C@@H]1CN(C)S(=O)(=O)c1cn(C)cn1	-2.9	0.2
CC(C)NC(=O)N(C)C[C@H]1Oc2c(NC(=O)c3ccc(-c4nccs4)cc3)cccc2C(=O)N([C@H](C)CO)C[C@@H]1C	-7.2	x
Cc1cc(-c2nnc(SCC(=O)c3ccccc3Cl)n2C)no1	7.4	-0.9
C[C@H]1CN([C@@H](C)CO)C(=O)c2cc(N(C)C)ccc2O[C@H]1CN(C)Cc1ccc(-c2ccccc2)cc1	-7.2	-0.8
COC(=O)Oc1ccc2c(=O)c(-c3ccccc3)coc2c1	3.5	-6.1
CCCC(=O)Nc1ccc(N)cc1	-3.1	-0.1
CC(/C(O)=C(/C#N)c1nc2ccccc2[nH]1)N1C(=O)c2ccccc2C1=O (stereo not drawn)	2.0	-0.2
CC(C)c1ccc2c(c1)CCC1[C@](C)(CN)CCC[C@]21C (stereo partly drawn)	-4.3	0.1
COc1ccc(CN(C)C[C@@H]2Oc3ccc(NC(=O)CCN4CCOCC4)cc3C(=O)N([C@@H](C)CO)C[C@@H]2C)cc1	-1.2	0.5
Cc1cc(C(=O)Nc2cccc3c2O[C@@H](CN(C)Cc2ccc4c(c2)OCO4)[C@@H](C)CN([C@@H](C)CO)C3=O)n(C)n1	-6.4	x

The list goes on:
SMILES	BJeLR viab HTS	A1 inh
O=C(NCCC(c1ccccc1)c1ccccc1)c1cccnc1Cl	3.0	x
C[C@H]1CN([C@@H](C)CO)C(=O)c2cc(NS(=O)(=O)c3ccc(F)cc3)ccc2O[C@H]1CN(C)C(=O)Nc1ccc2c(c1)OCO2	0.1	1.3
COc1ccc(-n2c(=O)c3c4c(sc3n(CC(=O)Nc3cc(C)[nH]n3)c2=O)CCCC4)c(OC)c1	3.6	x
CCOc1ccc(C2(CC(=O)Nc3ccccc3)C(=O)c3ccccc3C2=O)cc1OC	-1.7	-0.5
CCCCn1c(Br)nc2c1c(=O)[nH]c(=O)n2C	-0.7	-0.7
S=c1nc(NC2CC2)c2ccccc2[nH]1	0.7	1.2
COc1ccc(C(CC(=O)O)NC(=O)Cc2ccccc2)cc1 (stereo not drawn)	-1.7	0.4

Screening data deposited in PubChem by Broad Institute.

A portion of the library, so the mix of outcomes need not match the whole.
